Compound activity: PubChem, National Center for Advancing Translational Sciences (NCATS)
Rango dissoc inh = inhibition of RanGTP-driven Rango-importin beta dissociation; Biochemical FRET Rango-importin beta, RanGTP-induced dissociation; Potency, µM (top dose mostly 46.1 µM), without a hit: at the highest dose activity change, negative = inhibition; actives 0.071% (n = 340,000); AID 540253; active means falling FRET ratio curve, often poorly fitted, with flat reads before Ran was added; inconclusive means other falling curves, or compound fluorescence or quenching; inactive means flat or rising ratio curve;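 also: potency is read from the fitted curve at half-maximal effect; % of control where 0% means no effect; nearly all actives have a fitted effect of over 45% in size; -100% = wells without RanGTP and RCC1; the record marks most hits as doubtful in a second field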
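Recombinant Rango FRET biosensor (EYFP–snurportin 1 IBB–cerulean CFP10) at 0.1 uM premixed with 0.25 uM importin beta in PBS, 1 mM DTT, 0.02% Tween-20, 0.1% BSA. Compound added 5 min; RanGTP-RCC1 (0.6 uM Ran, 2 mM GTP, 0.2 uM RCC1) then triggers release, read at 45 min.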
Rango complex inh = Rango-importin beta binding inhibition | Q14974 | Rango CFP/YFP FRET sensor + importin beta, 45 min | Potency, µM (top dose mostly 92.2 µM), without a hit: top-dose inhibition of complex formation | actives 0.031% (n = 340,000); active = rising FRET ratio curve, often small or poorly fitted; inconclusive = mostly compound fluorescence or quenching in the first reads; inactive = flat curves in all reads;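 also: potency is read from the fitted curve at half-maximal effect; 0% = DMSO wells and 100% = buffer wells lacking importin beta; nearly all actives have a fitted effect of over 15% in size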
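FRET biosensor Rango (snurportin 1 IBB between N-terminal EYFP and C-terminal Cerulean), 50 nM in PBS/1 mM DTT/0.02% Tween-20/0.1% BSA, preincubated 5 min RT with compound; 0.125 microM importin beta added, 45 min RT, CFP/YFP FRET ratio read.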
miR-21 reporter = raises the signal of a miR-21 reporter. HeLa miR-21 FLuc reporter, luciferase, 48 h. Potency, µM (highest dose often 38.3 µM), without a hit: top-dose reporter change, positive = more light. 340,000 tested, under 10 active. AID 2288; active = well fitted rising curve with a large enough effect; inconclusive = small, poorly fitted or top-dose-only effect; inactive = no such curve, though single readings can be large or run the other way;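 also: % of control where 0% means no effect; miR-21 action dims this reporter so a rising signal means less miR-21 action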
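Luminescence from a firefly luciferase reporter carrying a miR-21 binding site downstream, stably expressed under a CMV promoter in HeLa cells that make miR-21 endogenously, reports miRNA modulation after 48 h compound exposure up to approximately 40uM final.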
GLA inh pH 4.5 = alpha-galactosidase A (human) inhibition, pH 4.5. P06280. purified enzyme, 4-MU-alpha-Gal fluorescence, pH 4.5. activity change, negative = inhibition, % at 105 µM. 230,000 tested, under 10 active. AID 1467; inconclusive = small, poorly fitted or top-dose-only inhibition, or a rising curve; inactive = flat fitted curve, though single readings scatter; no compound was filed as active;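 also: 0% = full activity with enzyme and -100% = basal without enzyme; dose as in the result columns while the protocol names 77 µM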
Target sequence (P06280 whole entry, looked up): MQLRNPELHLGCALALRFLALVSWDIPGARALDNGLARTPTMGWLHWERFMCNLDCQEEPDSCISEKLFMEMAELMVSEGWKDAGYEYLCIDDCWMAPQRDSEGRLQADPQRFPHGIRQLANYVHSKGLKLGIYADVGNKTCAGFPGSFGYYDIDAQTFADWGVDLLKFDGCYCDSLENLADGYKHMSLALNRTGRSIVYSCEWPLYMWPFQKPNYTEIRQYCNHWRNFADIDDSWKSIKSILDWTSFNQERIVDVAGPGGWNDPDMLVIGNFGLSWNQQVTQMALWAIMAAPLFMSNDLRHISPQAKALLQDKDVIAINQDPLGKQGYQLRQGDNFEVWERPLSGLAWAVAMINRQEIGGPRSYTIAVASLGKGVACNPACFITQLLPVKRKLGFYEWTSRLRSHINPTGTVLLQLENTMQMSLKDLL
Active calls of the source: *; ? = inconclusive; . = not tested or not shown. Not all compounds are listed (hit frequency here may not be typical).

Rango dissoc inh | Rango complex inh | miR-21 reporter | GLA inh pH 4.5 | compound
5.1% | 4.0% | -0.6% | -0.4 | O=C1C2ON(c3ccccc3)C(c3ccncc3)C2C(=O)N1c1ccc(Br)cc1 (stereo unspecified)
-5.5% | 1.2% | -19.3% | . | COc1ccccc1N1CCN(c2ccc([N+](=O)[O-])cn2)CC1
0.1% | -0.8% | -3.7% | 2.1 | O=S1(=O)CCN2C=C(Br)C=C(Br)C2=N1
6.9% | 1.6% | . | . | CCCc1cc(=O)[nH]c(SCC(=O)Nc2ccc(Cl)c(S(=O)(=O)N3CCOCC3)c2)n1
0.3% | 0.4% | 0.9% | 3.3 | O=C(CSc1nnnn1C1CCCCC1)N1CCc2ccccc21
8.6% | 2.9% | 5.1% | . | CC(=O)c1ccc(N2CCN(C(=O)c3nn(C)c4c3CS(=O)(=O)c3ccccc3-4)CC2)cc1
-12.7% | ? | 0.6% | -16.2 | CN1CCc2nc3sc(C(=O)NCc4ccccc4)c(N)c3cc2C1
-15.5% | 0.8% | 5.9% | 5.6 | CC1=CC(C)C(COC(=O)CN2CCCCC2)C(C)C1 (stereo unspecified)
-2.7% | 1.1% | -37.0% | 3.5 | COCCNC(=O)C(=O)Nc1cccc(Br)c1
-3.6% | 1.1% | -4.1% | 11.8 | CCn1c(-c2sc(-c3ccccc3)nc2C)n[nH]c1=S
-2.8% | 0.2% | -5.2% | . | O=C(CNC(=O)c1ccccc1F)OCC(=O)c1ccc(Cl)s1
30.7% | -0.3% | . | . | CS(=O)(=O)c1cccc(C(=O)OCCCC(=O)c2ccccc2)c1
-14.1% | 0.1% | . | . | Cc1nnc(SC(C)C(=O)NCC2CCCO2)s1 (stereo unspecified)
7.6% | -2.5% | 2.5% | -13.7 | COc1cccc(CNc2ncn[nH]2)c1OCc1ccc(F)cc1
? | ? | 0.2% | -10.1 | O=C(Nc1cccc(NC(=O)c2ccccc2[N+](=O)[O-])n1)c1ccccc1[N+](=O)[O-]
0.6% | -0.9% | 1.7% | -7.6 | CCn1c(SCC(=O)Nc2ccccc2)nnc1C1CCCCC1
34.8% | -6.7% | -42.8% | -2.1 | O=C1C(C=NCc2ccco2)=C(O)c2ccccc21
3.1% | 0.5% | -44.7% | . | COC(=O)c1cnn(-c2nc(-c3ccccc3)cs2)c1N
-4.6% | -3.1% | -6.4% | 0.7 | CC(C)N(C(=S)Nc1cc(S(=O)(=O)N2CCOCC2)ccc1Cl)c1ccccc1
. | . | -2.0% | -0.3 | CCc1nnc(NC(=O)c2ccc3c(c2)C(=O)N(CC(C)C)C3=O)s1
-4.7% | 7.6% | -9.5% | -0.7 | Cc1ccc(OCC(=O)NC(=S)Nc2cccc(NC(=O)c3ccccc3)c2)cc1
-1.4% | 1.2% | -16.3% | -0.6 | Clc1ccsc1-c1csc(-c2cccnc2)n1
0.8% | 0.7% | 0.2% | . | CCN(CC)CCOc1nnc(-c2ccc(OC)cc2)c2ccccc12
-5.0% | 5.5% | -51.4% | . | CCN(CC)C(=O)c1cc(-c2ccc3c(c2)OCO3)on1
-2.1% | -1.6% | -6.8% | 1.4 | Oc1ccc(N=Cc2sc3ccccc3c2Cl)cc1

Structures shown so far that contain two or more sulfur atoms:
Rango dissoc inh | Rango complex inh | miR-21 reporter | GLA inh pH 4.5 | compound
6.9% | 1.6% | . | . | CCCc1cc(=O)[nH]c(SCC(=O)Nc2ccc(Cl)c(S(=O)(=O)N3CCOCC3)c2)n1
-3.6% | 1.1% | -4.1% | 11.8 | CCn1c(-c2sc(-c3ccccc3)nc2C)n[nH]c1=S
-14.1% | 0.1% | . | . | Cc1nnc(SC(C)C(=O)NCC2CCCO2)s1 (stereo unspecified)
-4.6% | -3.1% | -6.4% | 0.7 | CC(C)N(C(=S)Nc1cc(S(=O)(=O)N2CCOCC2)ccc1Cl)c1ccccc1
-1.4% | 1.2% | -16.3% | -0.6 | Clc1ccsc1-c1csc(-c2cccnc2)n1

Remaining list, next part
Rango dissoc inh | Rango complex inh | miR-21 reporter | GLA inh pH 4.5 | compound
14.6% | 1.6% | -44.5% | . | CC(C)CN1CCC(=O)N(CCOc2ccccc2)CC1
-5.1% | 1.8% | -9.1% | 3.3 | CC1CC(C)CN(c2oc(-c3ccco3)nc2C#N)C1 (stereo unspecified)
4.6% | -0.4% | . | . | CCN(C(=O)COC(=O)CNC(=O)c1sc2ccccc2c1Cl)C1CCCCC1
8.3% | ? | -10.2% | -2.0 | COc1ccc(NC(=O)c2ccc3ccccc3n2)cc1S(=O)(=O)Nc1ccccc1Cl
-0.3% | 4.6% | -9.7% | ? | CCCc1cc(=O)[nH]c(SCC(=O)c2cc(C)n(CCC)c2C)n1
2.4% | 1.9% | 24.8% | 11.6 | CCCCn1c(=N)n(CCOc2ccc(C)cc2)c2ccccc21
-9.2% | 3.6% | 0.7% | -0.2 | CCCOc1ccc(/C(O)=C2/C(=O)C(=O)N(CCCOC)C2c2ccncc2)cc1 (stereo unspecified)
-11.1% | -0.9% | -4.1% | -1.4 | O=C(CCN1CCCCC1)Nc1cccc(Cl)c1
0.4% | -1.3% | -4.9% | 8.9 | Cc1nn(Cc2ccccc2)c(Cl)c1/C=C/C(=O)OC(C(=O)NC(N)=O)C(C)C (stereo unspecified)
? | ? | 5.7% | 1.2 | C=CCNC1=C(Cl)C(=O)N(c2cccc(Cl)c2Cl)C1=O
6.4% | -5.7% | -28.1% | 5.1 | Cc1ccc(C(=O)Nc2ccc(S(=O)(=O)NCc3ccco3)cc2)cc1
-7.5% | 3.5% | 1.3% | . | COCCCNC(=O)CN(Cc1ccccc1)S(=O)(=O)c1ccccc1
0.1% | -1.9% | . | . | CCCCCCC[C@@H](C/C=C/CCC(=O)O)OC
-4.6% | 1.1% | -0.5% | 5.1 | Cc1cc(C)nc(N2C(=O)CC(Cc3ccccc3)C2=O)n1 (stereo unspecified)
5.6% | 5.7% | -14.9% | 7.1 | CC(=O)Nc1cccc(NC(=O)CSc2nc3ccccc3o2)c1
6.4% | 3.0% | -12.0% | 4.1 | COC(=O)c1cc(C#N)c(Oc2ccc(OC)cc2)nc1C
1.2% | 0.3% | 0.6% | 0.7 | Cc1[nH]nc2c1C(c1cnn(C)c1)C(C#N)=C(N)O2 (stereo unspecified)
11.4% | 2.6% | -3.6% | -3.1 | O=Cc1cn(CCC(=O)O)nc1-c1cccc2ccccc12
18.6% | -0.1% | -9.9% | -2.9 | O=[N+]([O-])c1cccc(-n2nnnc2CN2CCCCCC2)c1
-0.1% | 4.6% | . | . | CCc1ccc(-c2csc(NC(=O)C3=COCCO3)n2)cc1
3.1% | 2.9% | -2.9% | . | CN(C)C(CNC(=O)CNC(=O)c1ccc2ccccc2c1)c1ccccc1 (stereo unspecified)
4.2% | -6.9% | -3.2% | -11.5 | CC(=O)NS(=O)(=O)c1ccc(N=c2ssc3c2-c2cc(C)c(C)cc2NC3(C)C)cc1
-24.6% | 0.1% | ? | -4.2 | Cc1csc(NC(=O)c2cn3ccccc3n2)n1
-12.3% | -1.2% | -6.7% | 5.3 | COc1c(C(=O)Nc2c(C)n(C)n(-c3ccccc3)c2=O)ccc2ccccc12
19.3% | 1.5% | -18.0% | . | Cc1ccc(-c2nc3ccccc3c(=O)n2N)cc1

(listing goes on)
Rango dissoc inh | Rango complex inh | miR-21 reporter | GLA inh pH 4.5 | compound
0.1% | -3.7% | -1.5% | 0.6 | C/C(=N\NC(=O)CSCc1ccc([N+](=O)[O-])cc1)c1ccccc1O
9.8% | ? | 0.3% | 0.8 | C=CCOc1ccc(CNc2ccc3[nH]c(=O)[nH]c3c2)cc1
-7.2% | 2.9% | . | . | O=C(COC(=O)Cc1c[nH]c2ccccc12)NC1CCS(=O)(=O)C1 (stereo unspecified)
-4.7% | 0.1% | . | . | O=C1CCCCC1(c1ccccc1)c1ccccc1
2.6% | 0.9% | -2.1% | 3.3 | O=[N+]([O-])c1cn(-c2nc(-c3ccco3)cc(C(F)(F)F)n2)cn1
-20.7% | -0.8% | . | . | CCN(CC(=O)Nc1ccc(NC(C)=O)cc1)C(=O)c1cccc(S(=O)(=O)N2CCCC2)c1
-17.5% | -1.0% | -4.0% | -2.4 | CC(C)c1ccc(CC(NC(=O)c2ccccc2)C(=O)NCC(=O)O)cc1 (stereo unspecified)
9.9% | -1.2% | -12.0% | . | CC(C(=O)N1CCN(C(=O)c2ccco2)CC1)n1sc2ccccc2c1=O (stereo unspecified)
13.8% | 3.3% | . | . | O=C(COC(=O)c1ccc(Cl)nc1)NC(=O)c1ccc(OC(F)F)cc1
-8.0% | -3.2% | -7.1% | -11.7 | N#Cc1c(NC(=O)c2cnccn2)sc2c1CCCC2
1.2% | -0.6% | -7.1% | 0.3 | Cc1cc(C)c2nc(SCC(=O)N3CCCCC3)c(C#N)cc2c1
-0.6% | -0.7% | 3.2% | -4.5 | O=C(NCCN1CCOCC1)c1ccc2c(c1)N(Cc1ccccc1F)C(=O)CS2
-4.6% | -3.7% | 1.3% | -7.4 | Fc1ccc(C2CCCN2Cc2nc(Cc3ccccc3)no2)cc1 (stereo unspecified)
3.0% | 1.0% | -10.1% | . | Cc1cccc(-n2cc(-c3ccccc3)[nH]c2=S)c1
17.5% | -0.7% | -16.7% | -4.8 | Cc1ccc(Cn2c(=N)n(CC(=O)c3ccc([N+](=O)[O-])cc3)c3ccccc32)cc1
5.6% | -3.5% | -0.5% | . | O=C(NCCN1CCOC1=O)C1CCC(=O)N(CCc2ccc(Cl)cc2)C1 (stereo unspecified)
19.3% | 1.5% | . | . | Cc1ccc(OCCC(=O)OCC(=O)Nc2ccc3[nH]c(=O)[nH]c3c2)cc1
2.1% | 3.4% | . | . | COc1ccc(-c2cccc(NS(=O)(=O)c3cccc([N+](=O)[O-])c3)c2)nn1
1.4% | 0.1% | -1.1% | -0.9 | O=S(=O)(Nc1nc2ccccc2nc1Nc1ccc2c(c1)OCO2)c1ccc(F)cc1
0.2% | -4.0% | 12.3% | 3.3 | Cc1cc2nc(C3CCCN(C(=S)Nc4ccccc4)C3)[nH]c2cc1C (stereo unspecified)
0.4% | -0.7% | . | . | CCC1CCc2sc(C(=O)N(C)CC(=O)Nc3cccc(OC)c3)cc2C1 (stereo unspecified)
5.3% | -0.6% | -2.4% | -1.2 | CCOC(=O)c1ccc(NC(=O)CSc2nnc(COc3ccccc3OC)n2CC)cc1
? | ? | -4.2% | -0.2 | Oc1c(C(Nc2nc3ccccc3s2)c2ccco2)ccc2cccnc12 (stereo unspecified)
0.0% | 3.1% | -9.1% | 2.3 | COc1ccc(-n2c(SCC(=O)Nc3nccs3)nnc2-c2ccoc2C)cc1
27.1% | -0.6% | -5.7% | -2.5 | CC(=O)Nc1c(C(=O)O)[nH]c2ccccc12

New compounds follow:
Rango dissoc inh | Rango complex inh | miR-21 reporter | GLA inh pH 4.5 | compound
0.4% | -0.2% | -7.8% | . | COC(=O)c1ccc(NS(=O)(=O)c2ccc3c(c2)n(C)c(=O)n3C)cc1
15.1% | -0.9% | -20.8% | 0.6 | COc1ccc(C(=O)Nc2nncs2)cc1S(=O)(=O)N1CC(c2ccccc2)CC1=O (stereo unspecified)
? | ? | -2.3% | -1.8 | CCCCc1ccc(-c2csc(/C(C#N)=C\c3ccco3)n2)cc1
-2.5% | -2.5% | -2.5% | 12.7 | CC(=O)Oc1cccc(N2C(=O)C3C(C2=O)C2C=CC3C23CC3)c1 (stereo unspecified)
8.9% | 3.9% | -4.0% | . | O=C(CN1CCN(Cc2ccccc2)CC1)NCc1ccccc1Cl
1.8% | 2.7% | -1.7% | -0.4 | Cc1cc(C(F)(F)F)nn1Cc1n[nH]c(=S)n1-c1ccc(F)cc1
-2.1% | 0.1% | -10.3% | -6.3 | O=c1[nH]nc(-c2ccc(F)cc2)cc1Cc1ccc(F)cc1
-1.0% | 2.5% | 2.9% | 8.0 | Cc1c(O)ccc(NS(=O)(=O)c2ccccc2)c1C
2.1% | -4.2% | -30.0% | -1.8 | COc1ccc2c(c1OC)C(=O)N(c1cccc(C)c1)C2=O
